Source: PubChem BioAssay
BJeLR lethal: kills HRASV12-expressing BJeLR cells | BJeLR (HRASV12) viability, CellTiter-Glo ATP luminescence, 48 h; reference of the scale not given here | inhibition, % (no concentration beside the values) | 300,000 tested, 0.17% active;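 active = replicate mean above 50%; inconclusive = above 50% but judged a plate artefact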;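 note: 50 nL library stock added to about 25 µL; numbers are from one replicate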
PrP UTR inh: inhibition of PrP 5' UTR reporter expression; inhibition, % (no concentration beside the values); AID 488862; cell-based PrP 5' UTR mRNA reporter, plate reader; 340,000 tested, 0.35% active;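 active = every replicate at 50% or more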;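 note: 0 = median of the neutral control wells; tested in H4 reporter cells; numbers are from one replicate; inactives centre near -14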
RN4220 kill: S. aureus RN4220 growth inhibition; OD600, 16 h; inhibition, % (concentration not given with the values); 330,000 tested, 0.33% active;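 active = z-score of -3 or lower and OD600 up to 0.18 on both plates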;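 note: plate controls were untreated cells for no effect and reference antibiotic for full effect; stock transfer was 100 nL into about 80 µL; one replicate is shown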
Sa ugtP lethal: growth inhibition of S. aureus ugtP deletion strain | S. aureus RN4220 ugtP deletion, OD600 growth, 16 h; some inactives read as strong as hits | growth inhibition, % (test concentration not listed) | 330,000 tested, 0.54% active;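 active = z-score under -3 and OD600 up to 0.15 on both plates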;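 note: plate controls were untreated wells for no effect and antibiotic for full effect; wells of about 80 µL received 100 nL stock; the first replicate is given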
Mtb hypoxia inh: reduces hypoxia-regulated biosensor signal in M. tuberculosis | M. tuberculosis hypoxia-regulated fluorescent reporter, fluorescence | 300,000 tested, 0.1% active | AID 1159583 | fluorescence inhibition, % (no concentration beside the values);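 active = 35 to 45% if threefold the growth effect, above 45% if 1.5-fold the growth effect; inactive = the rest, general growth blockers included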;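 note: wells of about 50 µL received 100 nL stock; 0% = vehicle wells and 100% = reference inhibitor wells; whole bacteria with a GFP reporter of the hypoxia response; strong numbers were not always called active; many hits fall short of the cut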
Autofluor counter: flagged as autofluorescent in microsphere protease counterscreen. compound autofluorescence counterscreen, microsphere flow cytometry; active compounds read high. fluorescence intensity (no concentration beside the values). 360,000 tested, 3.1% active. AID 624483;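 active = at least 3 SD above the mean of all compounds, about 16000 in these data; inconclusive = too few beads counted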;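 note: 100 nL of 1 mM stock went into each well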
Mtb hypoxia inh growth: recorded beside Mtb hypoxia inh, whose call it bears; growth inhibition, %; measured here: M. tuberculosis growth (absorbance);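 0% = vehicle and 100% = reference antibiotic; read after six days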
Numbers without * were called inactive; ? = inconclusive; nt = not tested or not shown.

SMILES	BJeLR lethal	PrP UTR inh	RN4220 kill	Sa ugtP lethal	Mtb hypoxia inh	Mtb hypoxia inh growth	Autofluor counter
CCN(CC)c1ccc(NC(=O)c2cccnc2)c(C)c1	-4	-3	-0.7	-4	4	-4	nt
CCN(CC)C(=O)CSc1nnc(-c2ccccc2)c(-c2ccccc2)n1	10	-36	4.7	10	-1	12	10122
NC1=NC[C@H](Cc2ccc(O)cc2)N1CC1CCCCC1	-6	-7	nt	nt	nt	nt	4189
Cn1nnc(NC(=S)NC(=O)c2cc(Cl)ccc2Cl)n1	-2	-3	2.3	3	-5	-5	5862
Fc1ccc(-c2nnc(CN3CCC(c4nc5ccccc5s4)CC3)o2)cc1	nt	-25	0.5	-10	2	10	4238
O=C(c1ccc2ccccc2c1)C1CCCN(C(=O)c2cccnc2)C1 (configuration not stated)	-5	-7	3.4	6	11	8	5698
CCCCC1=NN(C(=O)c2cocc2C)C(O)(C(F)(F)F)C1 (configuration not stated)	1	-17	2.7	-2	15	5	6154
O=C(OCc1ccccn1)c1ccc(COc2ccccc2Cl)o1	1	-8	1.8	2	19	11	3401
O=C(NCc1ccc(F)cc1)C(Cc1ccccc1)n1cccc1 (configuration not stated)	5	-19	-0.4	9	4	-8	4731
CC(O)C1CN=C(N)N1CC(C)(C)C (configuration not stated)	nt	nt	3.6	-11	8	9	nt
Cc1sc2ncnc(N3CCC(C)CC3)c2c1C	3	-80	3.1	14	4	10	3352
O=c1[nH]c2ccccc2nc1C=C(O)C(F)F	nt	nt	2.3	7	7	-7	nt
Cc1ccc2cc(CN(Cc3ccco3)C(=S)NCC3CCCO3)c(=O)[nH]c2c1C (configuration not stated)	-25	-37	1.6	-13	-12	-1	10812
CCOC(=O)/C=C/c1ccc2oc3ccccc3c(=O)c2c1	-1	-55	nt	nt	nt	nt	4036
O=C(CSc1nnc(CNC(=O)c2ccccc2)o1)NCc1ccc2c(c1)OCO2	3	-1	-6.0	-3	9	-22	5977
COCCNC(=O)Cn1cnc2c1c(=O)n(C)c(=O)n2C	4	-19	0.6	2	nt	nt	2665
COc1ccc(CN2CCC3C=CCC(C(=O)N4CCOCC4)C3C2=O)cc1OC (configuration not stated)	nt	nt	2.4	-2	-10	-14	nt
CCC(O)CNc1nc(-n2nc(C)cc2C)nc2sc3c(c12)CC(C)(C)OC3 (configuration not stated)	-14	-9	3.1	8	-7	-6	9620
CN(C)c1nc(F)c(F)c(S(=O)(=O)c2ccccc2)c1F	1	-3	6.2	5	11	1	3517
C[C@H](NC(=O)[C@H]1N2C(=O)c3ccccc3C2SC1(C)C)C(=O)N1CCC[C@H]1C(=O)O (some centres not stated)	2	-29	3.2	-2	nt	nt	5933
O=C(NN=Cc1ccc(OC(=O)c2ccccc2Cl)cc1)c1cc(O)cc(O)c1	nt	nt	6.1	5	9	-7	nt
CC(=NNC(=O)C1CCCN(S(=O)(=O)c2ccccc2)C1)c1cccnc1 (configuration not stated)	nt	nt	-16	-5	10	4	nt
CC1Sc2ccc(S(=O)(=O)CCC(=O)N3CCN(c4ccccc4)CC3)cc2NC1=O (configuration not stated)	0	-7	4.7	7	-5	-1	6009
COc1ccc(-c2ccc(CCC(=O)O)n2NC(=O)c2ccc(O)cc2)cc1	8	-41	-2.7	0	5	0	4302
CC1CCN(C(=O)C2CCCN2S(=O)(=O)c2ccc(Cl)cc2)CC1 (configuration not stated)	3	-8	0.0	-1	-4	6	6447
Cc1ccc2nc(C)cc(C(=O)OCC(=O)c3ccc(Cl)c([N+](=O)[O-])c3)c2c1	5	-6	-7.4	-4	nt	nt	4023
CCOC(=O)c1cnc2c(C#N)c(C)nn2c1C	-6	1	9.5	-3	13	11	2470
O=C(NCc1ccc2c(c1)OCO2)c1nc(Cn2ccc([N+](=O)[O-])n2)no1	6	-1	3.1	9	1	6	3683
CCOc1ccc(C(C)=O)cc1NC(=O)C=CC(=O)O	nt	nt	7.8	-2	15	6	nt
CC(C)(C)OC(=O)CNC(=O)c1[nH]cnc1C(=O)NCCCCCN	-7	-23	5.3	2	6	11	3734
Cc1cccc(OCCC(=O)NCC(c2ccccc2)N(C)C)c1 (configuration not stated)	4	-10	0.1	0	12	16	25146*
COc1ccc(/C=C2\SC(=S)N(CCC(=O)Nc3cccc(C(=O)O)c3)C2=O)cc1OC	4	-28	3.4	5	-10	5	4652
Nc1nc(SCC(=O)NCc2ccco2)[nH]c(=O)c1-c1ccccc1	3	5	2.3	-5	-2	4	4384
Cc1nc(-c2cccc(NC(=O)C(C)Oc3ccccc3)c2)cs1 (configuration not stated)	-5	-8	99*	100*	13	22	4926
CCS(=O)(=O)N1CCN(Cc2ccc([N+](=O)[O-])cc2)CC1	-5	-14	2.2	3	11	5	2485
CC=CC(=O)OCC(=O)Nc1nc2ccc(C)cc2s1	nt	nt	-2.7	-11	-2	11	nt
Cc1ccc(S(=O)(=O)N2CCOCC2)cc1C(=O)OCC(=O)NC1CC1	nt	5	4.1	10	33*	61*	6380
Cc1ccc(-n2ccc(=O)c(C(=O)O)n2)cc1	3	-8	1.4	0	nt	nt	3758
N#Cc1ccsc1NC(=O)C1CCN(C(=O)c2ccc(F)cc2)CC1	nt	-25	8.5	-2	7	-1	3616
COc1ccc(C2(C(=O)NCCN3CCOCC3)CCOCC2)cc1	3	-21	1.3	-1	3	2	8022
CSC1=C(C#N)C(c2ccccc2C)C(C#N)=C(N)N1 (configuration not stated)	nt	-13	5.9	18	2	6	23095*
O=C(O)c1ccc(C=NNC(=O)c2ccc(Br)cc2)cc1	nt	nt	5.1	4	-5	-2	nt
Cc1ccc(CNC(=O)CS(=O)Cc2nc(-c3ccccc3Cl)oc2C)cc1 (configuration not stated)	-4	-3	0.1	-2	-6	2	5845
CN(C)c1cnn(-c2ccccc2)c(=O)c1Cl	-10	-24	3.9	3	7	2	2441
COc1cc(OC)c(C(=O)OCC(=O)Nc2ccc(S(=O)(=O)N3CCOCC3)cc2)cc1OC	nt	-11	0.8	0	-1	7	4307
Cc1nc(SCC(=O)N2CCN(C(=O)c3cccs3)CC2)c2c(C)c(C)sc2n1	nt	5	2.2	-3	-1	7	6256
COc1cc2cc(CN(CCc3ccccc3C)C(=S)NCCCN3CCOCC3)c(=O)[nH]c2cc1OC	1	-14	0.8	-7	-9	9	4715
COc1ccc(-n2cc(CNCCc3cscn3)c(-c3ccccc3Cl)n2)cc1	4	nt	1.2	7	14	2	nt
Cc1cc(NC(=O)COC(=O)c2ccc(S(=O)(=O)C(F)F)cc2)n(-c2ccccc2)n1	-1	-5	2.7	2	8	6	5164
O=C(Nc1ccc2nc(-c3cccnc3)[nH]c2c1)c1ccccc1F	-4	-3	4.3	1	4	9	4177
COc1cc(C=Nn2c(-c3n[nH]c4c3CCC4)n[nH]c2=S)ccc1O	nt	nt	5.5	7	9	16	nt
O=C(C(c1ccccc1)c1ccccc1)N1CCN(c2ccccn2)CC1	2	-14	0.3	13	-6	-8	4387
O=C(O)/C=C\C(=O)Nc1ccc(N2CCN(c3ccc(Cl)cc3)CC2)cc1	3	-22	nt	nt	nt	nt	4121
N#Cc1c(N)sc2c1CCN(CCc1ccccc1)C2	2	-34	-4.4	1	nt	nt	5685
CCc1cccc(NC(=O)CN(C)S(=O)(=O)c2cccc3nsnc23)c1	5	-25	3.5	-6	0	4	4249
CC(=O)N/C(=C\c1ccccc1)C(=O)Nc1ccc(O)cc1	-18	-18	1.8	3	15	13	4076
CC1=C(C(=O)OC2CCCCC2)C(c2ccc(C)o2)C2=C(CC(C)(C)CC2=O)N1 (configuration not stated)	2	-8	2.3	0	-5	6	5828
O=C(NC1CCCCC1)c1cc(Cl)nc2ccccc12	-1	-7	-1.3	-1	3	4	2783
Cc1cc(S(=O)(=O)N2CCOCC2)ccc1OCC(=O)NCc1ccccn1	-5	-4	2.6	6	6	12	5461
O=C(Nc1ccc2c(c1)OCCO2)C1CCN(C(=O)c2ccc(F)cc2)CC1	0	-50	0.4	9	10	2	10503

Reprinted at random: 5 records from the list, in no set order.
SMILES	BJeLR lethal	PrP UTR inh	RN4220 kill	Sa ugtP lethal	Mtb hypoxia inh	Mtb hypoxia inh growth	Autofluor counter
CC(=O)N/C(=C\c1ccccc1)C(=O)Nc1ccc(O)cc1	-18	-18	1.8	3	15	13	4076
COc1cc2cc(CN(CCc3ccccc3C)C(=S)NCCCN3CCOCC3)c(=O)[nH]c2cc1OC	1	-14	0.8	-7	-9	9	4715
COc1ccc(-n2cc(CNCCc3cscn3)c(-c3ccccc3Cl)n2)cc1	4	nt	1.2	7	14	2	nt
O=C(Nc1ccc2c(c1)OCCO2)C1CCN(C(=O)c2ccc(F)cc2)CC1	0	-50	0.4	9	10	2	10503
Cc1cc(NC(=O)COC(=O)c2ccc(S(=O)(=O)C(F)F)cc2)n(-c2ccccc2)n1	-1	-5	2.7	2	8	6	5164

(next part)
SMILES	BJeLR lethal	PrP UTR inh	RN4220 kill	Sa ugtP lethal	Mtb hypoxia inh	Mtb hypoxia inh growth	Autofluor counter
O=C(NNC(=S)Nc1ccc(Cl)cc1Cl)C1CC1	-17	-13	-2.6	8	6	11	2030
CCN(Cc1ccccc1)Cc1nnnn1Cc1ccccc1	6	-12	5.5	5	4	5	2451
COc1ccc(N2CCN(C(=O)c3nc4nc(C)cc(C)n4n3)CC2)cc1	1	-30	16	-65	5	6	4198
Cc1ccc(NC(=O)C(c2ccc(Cl)cc2)N2CCOCC2)cc1 (configuration not stated)	-8	-10	0.4	2	8	5	2563
CCN1CCN(CC(O)COCc2ccccc2)CC1 (configuration not stated)	5	-52	-12	0	4	6	2440
O=C(O)C(Cc1ccccc1-c1ccccc1)C(=O)O	1	-10	1.4	-8	-9	-5	4140
CCC(C)(C)n1nnnc1CN1CCC(c2nc3ccc(C)cc3[nH]2)CC1	-11	-5	-1.9	1	-4	-3	8228
Cn1nc(C(=O)N2CCN(c3ccc(Cl)cc3)CC2)c2c1-c1ccccc1S(=O)(=O)C2	0	4	-0.9	0	0	-8	4860
Cc1cccc(C(=O)NNC(=O)CN2C(=O)c3ccccc3C2=O)c1	-6	-2	4.9	-1	0	2	2691
CCn1ncc(C2=NOC(C(=O)N3CCC(C(N)=O)CC3)C2)c1C (configuration not stated)	-3	-11	4.9	1	14	2	21518*
CCOC(=O)c1c(C)n(CC(O)c2ccccc2)c2ccc(O)cc12 (configuration not stated)	-5	-10	23	2	19	4	2886
CCOC(=O)Cc1cc(=O)[nH]c(Nc2nc3ccccc3o2)n1	2	-42	0.1	7	7	10	6193
CC1=C(C#N)C(C=NOCc2ccc(Cl)cc2)CC(=O)N1 (configuration not stated)	nt	nt	10	-2	-5	2	nt
CC1(C)CC(=O)C2=C(C1)NC1=C(C(=O)c3ccccc31)C2c1ccc(O)cc1 (configuration not stated)	-8	0	0.3	-3	-1	-4	2116
COc1ccccc1CCN1C(=S)NC(C)(C)CC1(C)O (configuration not stated)	6	-16	0.8	-1	nt	nt	5767
CCOC(=O)C1C2COc3ccc(Cl)cc3C2N2C(=O)CN(Cc3ccc(F)cc3)C(=O)[C@@]12C (some centres not stated)	nt	nt	5.2	9	3	2	nt
Cc1cc(Cl)ccc1OCC(=O)NNC(=O)c1cccnc1	-1	-6	3.4	4	1	-3	?
O=C1NC(C(=O)O)=CC(c2ccc([N+](=O)[O-])cc2)N1 (configuration not stated)	0	-22	3.1	3	5	-2	nt
Cc1ccccc1N(CC(=O)NC1CCCCC1)C(=O)c1csnn1	-7	-11	0.9	2	6	-2	5493
CCn1nc(C(=O)N2CCc3ccccc3C2)c2ccccc2c1=O	-1	-6	3.5	-4	6	0	4135
COc1cc(OC)c(C2Oc3nc(SC)nnc3-c3ccccc3N2C(C)=O)cc1OC (configuration not stated)	6	-16	3.2	9	nt	nt	6149
O=C(Nc1ccc(Cl)cc1)NC1CCCCC1Cc1ccco1 (configuration not stated)	-12	-28	7.0	-22	-7	13	5125
CCOC(=O)c1cc2c(cn1)[nH]c1ccccc12	11	8	32	-11	7	15	5300

Looked up above:
Under Autofluor counter, CCn1nc(C(=O)N2CCc3ccccc3C2)c2ccccc2c1=O is entered as 4135
Under PrP UTR inh, CCN(Cc1ccccc1)Cc1nnnn1Cc1ccccc1 is entered as -12
